DUX4 txn inh = blocks DUX4-driven transcriptional activation; activity change, negative = inhibition, % (test concentration not listed); hit rate 0.8% among 37,000; 293T-iDUX4 ZSCAN4-Gaussia luciferase reporter, 24 h; active compounds read low;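 active = -10% or lower and over 25 points stronger than a control reporter; inconclusive = -10% or lower with a smaller gap; inactive = above -10%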;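 also: 0% = median of neutral control wells and -100% = median of positive control wells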
DUX4 txn inh difference = further read-out of DUX4 txn inh, marked with its call; Gaussia minus Italica difference, %; measured here: selective DUX4 reporter inhibition;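 worked out from the two reporters; negative = selective loss of the DUX4 reporter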
DUX4 txn inh control = second read-out of DUX4 txn inh, no call of its own (marks repeat the call); activity change, negative = inhibition, %; measured here: Italica tet-on control reporter;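 0 = neutral control and -100 = positive control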
Active calls of the source: *; ? = inconclusive; · = not tested or not shown. The list is partial; rates above refer to the full screens.

SMILES | DUX4 txn inh | DUX4 txn inh difference | DUX4 txn inh control
CC=Cc1ccc2n(c1=O)C[C@H]1[C@H](CO)[C@@H](C(=O)N(C)C)[C@@H]2N1CCc1ccccc1 (mixture of isomers) | 5.2 | 6.3 | -1.1
CCNC(=O)C[C@H]1CC[C@@H]2[C@H](COc3ccc(NC(=O)c4ccc(F)c(F)c4)cc3C(=O)N2C)O1 | -3.3 | -2.2 | -1.0
Cc1noc(C)c1S(=O)(=O)Nc1ccc2c(c1)C(=O)N([C@@H](C)CO)C[C@H](C)[C@@H](CN(C)S(=O)(=O)c1ccc(F)cc1)OCCCC[C@@H](C)O2 | 1.9 | -0.5 | 2.4
O=C(NC[C@H]1N[C@H](CO)[C@@H]1c1ccc(-c2cncnc2)cc1)C1CCCCC1 | -1.6 | 0.8 | -2.5
CC=Cc1ccc2n(c1=O)C[C@H]1[C@H](CO)[C@@H](C(=O)NC3Cc4ccccc4C3)N(CC)[C@@H]21 (mixture of isomers) | -6.8 | -3.6 | -3.2
COc1ccc2c3c(n(C)c2c1)[C@H](CO)N(CC1CC1)CC31CN(C(=O)Nc2c(C)noc2C)C1 | 8.2 | 12.0 | -3.8
C[C@@H]1CN([C@H](C)CO)C(=O)c2cccc(N(C)C)c2O[C@H]1CN(C)C(=O)Nc1ccc(F)cc1 | -0.2 | -4.4 | 4.2
O=C(C[C@H]1C=C[C@H](NC(=O)c2cccc(F)c2)[C@@H](CO)O1)Nc1nccs1 | -0.2 | -4.0 | 3.8
CN(C)C(=O)C[C@@H]1C[C@H]2c3cc(NC(=O)c4cccnc4)ccc3O[C@H]2[C@H](CO)O1 | 11.7 | 9.6 | 2.1
Cc1noc(C)c1NC(=O)Nc1ccc2c(c1)C(=O)N([C@H](C)CO)C[C@@H](C)[C@@H](CN(C)S(=O)(=O)c1ccc(F)cc1)O2 | 7.5 | 6.2 | 1.2
COC(=O)C[C@H]1CC[C@@H]2[C@H](COC[C@H](O)CN2S(=O)(=O)c2ccccc2OC)O1 | 8.5 | 1.3 | 7.2
C/C=C/c1ccc([C@H]2[C@@H](CNC(C)=O)N(C(=O)Cc3cccnc3)[C@H]2CO)cc1 | 0.3 | -8.5 | 8.7
CO[C@@H]1CN(C)C(=O)c2cc(NC(=O)CC(F)(F)F)ccc2OC[C@H](C)NC[C@H]1C | 3.1 | 1.1 | 2.0
CN(C)CC(=O)N1[C@@H](C#N)[C@H](c2ccc(C#CC3CC3)cc2)[C@@H]1CO | 5.2 | 6.5 | -1.3
Cc1ccc(S(=O)(=O)N2CC[C@@H]3[C@H]2c2cc(C#Cc4cccnc4)ccc2N(C)[C@H]3CO)cc1 | 4.1 | -6.3 | 10.3
O=C(NC1CCC1)[C@H]1[C@H](CO)[C@H]2Cn3c(ccc(-c4ccccc4)c3=O)[C@@H]1N2CC1CC1 | -4.1 | -1.9 | -2.2
O=C(Nc1ccc(Cl)cc1)N1C[C@@H]2[C@H](c3ccccc31)[C@H](CO)N2C(=O)c1ccccn1 | 3.5 | 7.0 | -3.6
C[C@H]1CN([C@@H](C)CO)C(=O)CCCn2nncc2CO[C@H]1CN(C)C(=O)Nc1ccc(C(F)(F)F)cc1 | 1.2 | 1.8 | -0.6
O=C(C[C@@H]1C=C[C@@H](NC(=O)Nc2ccccc2F)[C@H](CO)O1)NCc1ccc(-c2ccccc2)cc1 | 10.3 | 47.2 | -36.9
CC=Cc1ccc2n(c1=O)C[C@@H]1[C@@H](CO)[C@H](C(=O)N(C)C)[C@H]2N1S(=O)(=O)c1ccccc1C (mixture of isomers) | 4.8 | 4.5 | 0.3
O=C(NCC[C@@H]1CC[C@@H](NS(=O)(=O)c2cccc(Cl)c2)[C@H](CO)O1)c1cnccn1 | -0.8 | -0.4 | -0.3
CO[C@@H]1CC[C@@H]2CCOc3c(C#N)cccc3C(=O)N(C)C[C@@H](C)C(=O)N(C)C[C@H]1O2 | 1.9 | -1.5 | 3.5
C[C@H]1CN([C@@H](C)CO)C(=O)c2ccccc2-c2ccccc2CO[C@@H]1CN(C)S(=O)(=O)c1ccc(C#N)cc1 | 5.7 | 7.5 | -1.8
Cc1ccc(S(=O)(=O)N2C[C@@H](O)COC[C@H]3O[C@H](CC(=O)N[C@H]4CCN(Cc5ccccc5)C4)CC[C@@H]32)cc1 | 5.5 | 4.5 | 1.0
COc1cccc(-c2ccc([C@@H]3[C@@H](CO)N4CCCCN(Cc5cncnc5)C[C@H]34)cc2)c1 | 5.1 | 3.8 | 1.3
CCC(=O)N1[C@@H](CO)[C@@H](c2ccccc2)C12CN(Cc1nccs1)C2 | 4.7 | 7.9 | -3.2
O=C(NC1CCCC1)[C@@H]1[C@@H](CO)[C@@H]2Cn3c(ccc(-c4cccnc4)c3=O)[C@H]1N2CC1CC1 | 6.3 | 5.4 | 0.9
C[C@@H]1CCCCO[C@H](CN(C)S(=O)(=O)c2ccc(F)cc2)[C@H](C)CN([C@@H](C)CO)C(=O)c2cc(N(C)C)ccc2O1 | 4.9 | -3.9 | 8.8
CO[C@@H]1CN(C)C(=O)c2ccc(NC(=O)Nc3cc(F)ccc3F)cc2OC[C@H](C)N(C(=O)c2ccccn2)C[C@@H]1C | 3.5 | -1.4 | 4.9
COc1ccc2c3c([nH]c2c1)[C@H](CO)N(Cc1ccccc1OC)CC31CCN(C)CC1 | ? | · | ·
Cc1nn(C)cc1NC(=O)C[C@@H]1CC[C@@H]2[C@H](COc3ccc(NC(=O)Nc4cccc(Cl)c4)cc3C(=O)N2C)O1 | 3.4 | -1.7 | 5.1
O=C(NC[C@H]1[C@@H](c2ccccc2)[C@H](CO)N1C(=O)C1CC1)NC1CCCC1 | 0.7 | 0.0 | 0.7
COc1ccccc1CN1[C@H](CO)[C@@H](c2ccccc2)C12CN(C(C)=O)C2 | 3.8 | 4.8 | -0.9
CN1[C@@H]2c3cccc(=O)n3C[C@@H]2[C@@H](CO)[C@@H]1C(=O)NCC1CCCCC1 | 0.9 | 4.9 | -4.0
CCCNC(=O)C[C@@H]1CC[C@H]2NC[C@H](O)COC[C@@H]2O1 | 5.4 | -2.9 | 8.4
O=C(C[C@@H]1CC[C@@H](NC(=O)Nc2cc(F)ccc2F)[C@@H](CO)O1)NCc1ccncn1 | 4.7 | 1.7 | 3.0
Cc1noc(C)c1NC(=O)Nc1ccc2c(c1)CC(=O)N([C@H](C)CO)C[C@H](C)[C@H](CN(C)S(=O)(=O)c1cccs1)O2 | 1.5 | -4.0 | 5.5
CC(C)[C@H](C)NC(=O)N(C)C[C@@H]1OCc2ccccc2-c2c(n(C)c3ccccc23)C(=O)N([C@@H](C)CO)C[C@H]1C | 19.3 | 20.2 | -0.9
CN1CCN(C(=O)C[C@@H]2CC[C@H]3[C@@H](COC[C@H](O)CN3C(=O)Nc3ccc(Cl)cc3)O2)CC1 | 8.1 | -2.8 | 10.8
COc1ccc(CN(C)C[C@H]2OCCCC[C@H](C)Oc3ccc(NC(=O)C4CCCCC4)cc3C(=O)N([C@H](C)CO)C[C@@H]2C)cc1 | -4.8 | -4.7 | -0.2
COc1ccc2c3c([nH]c2c1)[C@H](CO)N(C(=O)Nc1ccccc1F)CC31CCN(C(=O)C2CC2)CC1 | -0.3 | 7.6 | -7.9
CN(C)CC(=O)Nc1ccc2c(c1)[C@@H]1C[C@H](CC(=O)NCc3cc(F)ccc3F)O[C@@H](CO)[C@@H]1O2 | -5.8 | -3.4 | -2.4
N#Cc1cccc(-c2ccc3c(c2)[C@@H]2[C@@H](CCN2C(=O)c2ccccc2F)[C@@H](CO)N3)c1 | ? | · | ·
O=C(C[C@@H]1CC[C@@H]2[C@H](COC[C@H](O)CN2Cc2cc(F)cc(F)c2)O1)Nc1nccs1 | -4.1 | -2.1 | -2.0
CNC[C@H]1Oc2c(NC(=O)c3cnccn3)cccc2C(=O)N([C@@H](C)CO)C[C@@H]1C | -3.8 | -2.7 | -1.1
COc1ccccc1NC(=O)N1CC(=O)N2[C@H](CO)[C@H](c3ccc(-c4ccc(F)cc4)cc3)[C@@H]2C1 | -0.8 | 8.8 | -9.6
CCC(=O)N1CC2(CN(Cc3ccccc3Cl)C2)c2c([nH]c3cc(OC)ccc23)[C@@H]1CO | ? | · | ·
N#C[C@H]1[C@@H](c2ccccc2C2=CCCC2)[C@@H](CO)N1S(=O)(=O)c1ccccc1 | -5.3 | 5.4 | -10.7
COc1ccc(C[C@H]2CCn3nncc3COC[C@H](c3ccccc3)NC2=O)cc1 | 6.3 | 2.5 | 3.8
O=C(CN1CCOCC1)N1CCCCN2[C@H](CO)[C@H](c3ccc(Br)cc3)[C@H]2C1 | 9.1 | 13.5 | -4.5
C[C@H]1CCCCO[C@H](CN(C)S(=O)(=O)c2ccccc2)[C@@H](C)CN([C@@H](C)CO)C(=O)c2cc(NC(=O)Nc3ccc4c(c3)OCO4)ccc2O1 | -0.8 | -0.9 | 0.0
O=C(c1ccc2c(c1)OCO2)N1CC[C@@H]2[C@@H](CO)Nc3ccc(-c4ccccc4)cc3[C@@H]21 | ? | · | ·
C/C=C/c1ccc([C@@H]2[C@@H](CO)N(c3nc(CC)cs3)[C@@H]2CNC(C)C)cc1 | -2.0 | 0.3 | -2.3
Cc1noc(C)c1C(=O)N(C)C[C@H]1OCc2ccccc2-c2ccccc2C(=O)N([C@H](C)CO)C[C@@H]1C | 6.2 | -11.0 | 17.1
CC(C)CC#Cc1ccc([C@H]2[C@@H](CO)N3C(=O)CN(C(=O)NC(C)C)C[C@H]23)cc1 | -0.8 | -6.0 | 5.2
C[C@@H]1CN([C@H](C)CO)C(=O)c2ccccc2-c2ccccc2CO[C@H]1CN(C)C(=O)Nc1ccc(F)cc1 | 13.2 | 17.5 | -4.3
CCCC(=O)Nc1ccc2c(c1)C(=O)N(C)[C@H]1CC[C@H](CC(=O)Nc3cccc(C)c3)O[C@@H]1CO2 | 0.0 | -3.3 | 3.3
C[C@H]1CN([C@@H](C)CO)C(=O)c2ccccc2-c2ccccc2CO[C@H]1CN(C)Cc1ccccc1C(F)(F)F | ? | · | ·
CCC(=O)N1[C@H](C#N)[C@@H](c2ccccc2-c2cccc(C)c2)[C@@H]1CO | 2.4 | -9.2 | 11.6
COc1ccccc1CNC(=O)C[C@@H]1C[C@@H]2c3cc(NS(=O)(=O)c4ccc(F)cc4)ccc3O[C@@H]2[C@H](CO)O1 | 4.5 | -0.1 | 4.5
Further structures follow.
SMILES | DUX4 txn inh | DUX4 txn inh difference | DUX4 txn inh control
CN(C)C(=O)c1ccc(-c2cccc(-c3nc(C(=O)NC4CCCCC4)cc4c3[C@H](CCO)N([S@@](=O)C(C)(C)C)C4)c2)cc1 | -2.9 | 1.6 | -4.5
O=C(c1ccc2c(c1)OCO2)N1C[C@@H]2[C@H](c3ccccc31)[C@H](CO)N2Cc1ccccc1Cl | 0.0 | -2.0 | 2.1
OC[C@H]1[C@@H](c2ccc(C#Cc3ccccc3)cc2)[C@H]2CN(CC3CCOCC3)CCCCN21 | ? | · | ·
CO[C@H]1CN(C)C(=O)c2cc(NC(=O)Nc3cccc(Cl)c3)ccc2OC[C@H](C)N(C(=O)Nc2c(C)noc2C)C[C@@H]1C | -0.9 | -2.7 | 1.8
CC=Cc1ccc2n(c1=O)C[C@@H]1[C@@H](CO)[C@H](C(=O)NCCC)N(CC3CCOCC3)[C@H]21 (mixture of isomers) | 10.2 | 11.9 | -1.6
COc1ccc(CNC(=O)C[C@H]2CC[C@H]3[C@@H](COc4ccc(NC(=O)C5CC5)cc4C(=O)N3C)O2)cc1 | -1.2 | -4.3 | 3.0
COCC(=O)N1CC2(C1)[C@@H](c1ccccc1)[C@@H](CO)N2CCC(F)(F)F | 4.7 | 2.3 | 2.4
CC(C)CC#Cc1ccc([C@@H]2[C@H](CO)N3C(=O)CN(S(=O)(=O)c4ccccc4)C[C@@H]23)cc1 | 1.4 | -8.5 | 9.9
C[C@@H]1CN([C@@H](C)CO)C(=O)CCCn2cc(nn2)CO[C@H]1CN(C)Cc1cccc(C(=O)O)c1 | 6.2 | 1.2 | 5.0
Cc1ccc(-c2ccc([C@@H]3[C@@H](CO)N4CCCCN(C)C[C@H]34)cc2)cc1 | 5.8 | 7.8 | -1.9
CCCNC(=O)N1C[C@H](O)COC[C@H]2O[C@@H](CC(=O)O)CC[C@@H]21 | 3.7 | -0.1 | 3.9
O=C(C[C@H]1C=C[C@@H](NC(=O)c2ccc3c(c2)OCO3)[C@H](CO)O1)NCc1ccc(F)cc1 | 8.9 | 9.4 | -0.4
CC=Cc1ccc2n(c1=O)C[C@H]1[C@H](CO)[C@@H](C(=O)NCCC)[C@@H]2N1C(=O)c1ccncc1 (mixture of isomers) | -2.5 | -3.3 | 0.7
COCc1cn(CC[C@H]2CC[C@@H](NC(=O)c3ccc(F)cc3)[C@@H](CO)O2)nn1 | 2.9 | 1.4 | 1.6
